HCMV UL50-53 inh: inhibitors of HCMV UL50-UL53 interaction, biochemical, HTRF | inhibition, % (concentration not given with the values) | 190,000 compounds, 0.15% hits | normalized percent inhibition | HCMV UL50-UL53 nuclear egress complex (human cytomegalovirus);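 active = both replicates at 50% or more, plus weaker picks with an unusually low signal ratio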;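 note: stock transfer was 100 nL into about 20 µL; 0% = negative control wells and 100% = wells with untagged competitor protein; inactives centre near -12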
Sa growth inh: S. aureus growth inhibition at 42 and 30 °C, primary screen, LtaS inhibitor project, RN4220, two temperatures. relative growth, % (no concentration beside the values). 170,000 compounds, 0.53% hits. OD600, 20 h, 42 °C; hits give low values;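 active = growth at 42 °C up to 50% and 20 or more points under that at 30 °C, or under 10% at both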;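 note: 300 nL library stock went into each well; scaled to the means of positive and negative controls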
GIV Gai3 FP: inhibitors of GIV peptide binding to Galpha-i3, primary screen, biochemical, fluorescence polarization, FITC-GIV GBA peptide, rat Galphai3. Guanine nucleotide-binding protein G(i) subunit alpha-3 (Rattus norvegicus), P08753. AID 1224905, 2016. percent of control (FP), % (no concentration beside the values). 210,000 compounds, 0.42% hits. 90 min; hits give low values; scaled: aluminum fluoride 0%, vehicle 100%;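 active = replicate mean at 85% of control or lower, very high polarization wells dropped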;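 note: wells of about 15 µL received 100 nL stock; the first replicate is given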
Target sequence (P08753 whole entry, looked up): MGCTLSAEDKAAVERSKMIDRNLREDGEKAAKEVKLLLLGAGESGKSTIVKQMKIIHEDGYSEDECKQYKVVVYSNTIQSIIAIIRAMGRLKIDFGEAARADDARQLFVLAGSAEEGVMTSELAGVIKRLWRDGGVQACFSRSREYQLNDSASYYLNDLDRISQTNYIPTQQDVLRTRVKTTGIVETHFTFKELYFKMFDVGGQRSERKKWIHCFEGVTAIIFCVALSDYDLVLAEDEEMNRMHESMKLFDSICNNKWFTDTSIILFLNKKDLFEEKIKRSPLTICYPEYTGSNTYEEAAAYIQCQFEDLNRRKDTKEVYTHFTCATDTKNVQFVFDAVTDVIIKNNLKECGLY
Sa growth inh second temp: recorded beside Sa growth inh, whose call it bears; relative growth, %; measured here: growth at 30 °C;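 optical density after 20 h as mean of two plates; 100% = untreated growth and lower means inhibition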
Active calls of the source: *; x = no result given; & = joins results of further samples. Outcome played no part in choosing rows; about 0.83% have a hit in one of these screens.

SMILES	HCMV UL50-53 inh	Sa growth inh	Sa growth inh second temp	GIV Gai3 FP
Cc1c(CCOC(=O)C2CC2)sc[n+]1CC(=O)c1ccccc1	-13	115	76	x
CC1=C(C(=O)Nc2ccccc2C)C(c2cccnc2)n2nc(SCc3ccccc3F)nc2N1 (stereo unspecified)	-45	113	93	102
CCCCCSc1nc(N2CCOCC2)c2c(c1C#N)CC(C)(C)OC2	0	x	x	109
COC(=O)c1cc(C(=O)OC)cc(-n2c(C)cc(C(=O)COc3ccc(-c4nnco4)cc3)c2C)c1	-33	80	86	x
CCOc1cc(C2C(C(=O)OCCOC)=C(C)NC3=C2C(=O)CC(c2ccc(Cl)cc2)C3)ccc1O (stereo unspecified)	-46	x	x	103
C=CCN1C(=O)S/C(=C\c2cc(OC)ccc2OC)C1=O	-8	103	87	112
CC1Cc2nc(SCC(N)=O)n(Cc3ccccc3)c(=O)c2S1 (stereo unspecified)	-17	95	74	101
O=C(COc1ccc(F)cc1)NCCn1c(C(F)(F)F)nc2cccnc21	-23	x	x	103
CCOc1ccccc1C1C(C(=O)Nc2ccccc2OC)=C(C)Nc2nc3ccccc3n21 (stereo unspecified)	5	101	88	103
Cn1nccc1C(=O)NCCN	-5	121	86	x
Cc1ccc(-c2nnc(Nc3ccc(O)cc3)c3ccccc23)cc1S(=O)(=O)N1CCOCC1	-48	105	93	102
O=S(=O)(NC1CCCCC1N1CCN(C2CCCCC2)CC1)c1ccccc1 (stereo unspecified)	-4	109	91	100
Cc1cc(=O)c2cccc(C(=O)O)c2[nH]1	-10	109	95	102
CC(C)(C)NCC(O)COc1ccc(-c2csnn2)cc1 (stereo unspecified)	1	100	108	97
C=C(C)C(=O)Nc1cccnc1Oc1ccccc1F	-14	101	99	104
CC(=O)Nc1ccc(C(=O)CSc2nnc3n2CCCCC3)c(F)c1	-18	102	83	x
O=C(COc1ccccc1Cl)OCc1cc(=O)n2nc(C3CC3)sc2n1	x	94	91	106
COc1ccc(CNC(=O)c2ccc3c(c2)N(Cc2c(F)cccc2Cl)C(=O)CS3)cc1	11	119	91	102
CCCCN(CC)CCCNC(=O)c1sc2nc3n(c(=O)c2c1C)CCCCC3	-7	107	107	105
COc1ccc(O)c(/C=N/NC(=O)CSc2nnc(C)n2-c2ccccc2)c1	-31	90	104	94
O=S1(=O)CCN(Cc2ccccc2C(F)(F)F)CC1	12	x	x	107
CCC(C)Cn1c(C)c2c(=O)n(-c3nc4ccccc4s3)[nH]c2cc1=O (stereo unspecified)	x	35	7	130
CCOC(=O)c1c(CSc2nc3ccccc3[nH]2)n(-c2ccccc2)c2ccc(OC(C)=O)cc12	x	101	87	98
CCOc1ccc2nc(NN)c(C3OCCO3)cc2c1	-9	106	71	108
CC1CCc2c(sc3nc4c5ccccc5c(NCCCN(C)C)nn4c(=O)c23)C1 (stereo unspecified)	-17	74	37	108
O=C(NNc1ncccc1C(F)(F)F)c1cccc(C(F)(F)F)c1	-8	101	94	109
COc1ccc(/C=C(\C#N)C(=O)Nc2nccs2)cc1O	-71	92	89	x
O=C(Cc1ccccc1)N1CCN(c2ccnc3cc(Cl)ccc23)CC1	-4	93	80	101
Cn1c(/N=C/c2cc(C(C)(C)C)c(O)c(C(C)(C)C)c2)nc2ccccc21	x	112	86	208
O=C(COC(=O)C1CC(=O)N(CCc2ccccc2)C1)NC1CC1 (stereo unspecified)	-3	100	93	x
C#CCN1C(=O)S/C(=C/c2ccccc2)C1=O	-48	109	103	107
N#Cc1ccccc1S(=O)(=O)N1CCN(c2nc(-c3ccccc3)nc3ccccc23)CC1	-18	84	98	x
COc1cc(OC)cc(N2C(=O)Cc3c2nc2c4c(nc(N5CCCC5)c(C#N)c34)N=C(C)N2)c1	-37	77	87	x
COc1ccc(CSC(=N)N)cc1Br	-11	98	79	96
Cc1ccc2c(c1)nc(NCCO)n2C	-9	96	98	104
O=C(c1cc2c(s1)CCC2)N1CCc2ccccc2C1	22	92	101	x
C=CCn1c(CN(c2ccc(F)cc2)S(C)(=O)=O)nnc1SCC(=O)N1CCc2ccccc21	-18	x	x	99
O=C(Nc1sc2c(c1C(=O)O)CCC2)c1ccco1	-30	142	85	x
C=CCc1c(C)nn(-c2nc(CC(=O)Nc3nccs3)cs2)c1C	-14	x	x	106
CC(C)C1NC(=S)NC2=C1CCCC2 (stereo unspecified)	x	108	69	99
Oc1cccc2c(Cl)ccc(Cl)c12	-16	74	61	101
CCc1ccccc1N1C(=O)N(Cc2ccc(C#N)cc2)c2ccccc2S1(=O)=O	x	109	115	111
CCc1cnc2c(c1SCc1ccccc1C)c(=O)n(C)c(=O)n2C	x	149	89	103
COCCN=c1scc(-c2ccc(C)c(C)c2)n1/N=C(\C)c1ccc(-n2ccnc2)cc1	-32	70	4	x
O=C(NC1CCCC1)C1CCCN(c2ccc(-c3ccccc3)nn2)C1 (stereo unspecified)	-36	x	x	99
COc1ccccc1Cn1[nH]nnc1=S	6	105	95	99
Nc1nnc(N2CCCCC2)s1	-21	92	77	97
CC(=O)N(C)CC(=O)Nc1cccc2ccccc12	-8	112	92	x
Cc1nc(C)c(C(=O)Nc2cccc(Cl)c2)s1	-3	x	x	107
Cc1ccc(SCC(=O)NC(C)(C)C)cc1	-13	108	86	x
Nc1nc2ccc(CCC(=O)O)cc2s1	2	111	72	57*
COC(=O)c1cc(NC(=O)c2nn(C)c3c2COc2ccccc2-3)cc(C(=O)OC)c1	-15	114	86	100
CCc1ccc(-c2nc3cc(NC(=O)c4cc5ccccc5cc4OC)ccc3o2)cc1	-53	99	83	110
COc1cc(NC(=O)Cn2cnc3sc(C)c(S(=O)(=O)N4CCN(C)CC4)c3c2=O)cc(OC)c1OC	16	95	101	99
Cc1ccccc1-c1noc(COC(=O)c2ccc(C#N)cc2)n1	-8	104	100	x
COc1ccc(NC(=O)c2ccc(-c3nc(COc4ccccc4)c(C)o3)cc2)c(OC)c1	-19	91	87	103
O=C(CSc1nc2nc[nH]c2c(=O)[nH]1)N1CCCc2ccccc21	-13	x	x	103
CCc1cc2c[n+](C3CCCCC3)sc2s1	x	74	62	103
Cc1ccc(S(=O)(=O)N2CN(CC3CCCO3)c3nc4ccccc4nc32)cc1C (stereo unspecified)	-22	90	88	103
COc1ccc(S(=O)(=O)N(Cc2nc(-c3ccc(OC)c(OC)c3)no2)C(C)C)cc1	-18	110	88	103

More records:
SMILES	HCMV UL50-53 inh	Sa growth inh	Sa growth inh second temp	GIV Gai3 FP
COC(OC)c1ccc2c(N)c(C#N)sc2n1	-14	102	95	103
CN(C)C(=O)CSc1nnc(N)s1	0	85	105	x
Cc1cc(Br)ccc1NC(=O)C1c2ccccc2C(=O)N2CCc3ccccc3C12 (stereo unspecified)	x	105	81	101
Cc1ccccc1OCC(=O)Nc1nnc(S(=O)(=O)N2CCCCCC2)s1	-10	102	69	104
CCC(=O)Nc1ccc(CC)cc1-c1nc2ccccc2n(CC(=O)Nc2cccc(Cl)c2)c1=O	-21	102	87	103
O=C1c2ccccc2C(=O)N1Cc1cccc(F)c1	-29	83	87	x
NNC(=O)c1nc(-c2ccccc2)no1	-14	114	96	110
COc1ccc(NC(=O)c2ccc3c(-n4ccnc4)c4c(nc3c2)CCCC4)cc1OC	3	121	94	95
Cc1ccccc1NC(=O)C1C2CCCCC21 (stereo unspecified)	-15	102	95	106
Cc1nn(-c2ccccc2)c(C)c1P(C)(=O)c1ccccc1 (stereo unspecified)	26	100	96	x
Cc1cc(N2CCN(C)CC2)nc2ccc(NC(=S)N(C)C3CCCCC3)cc12	9	109	82	110
COc1ccc(C(=O)c2nocc2C(=O)c2cccs2)cc1	-25	74	58	x
O=C(Cn1c(SCc2cccc(F)c2)nc2cccnc21)Nc1ccc(F)c(Cl)c1	x	109	93	98
CNC(=O)Cn1c2cc(OC)c(OC)cc2c2nc(=O)cc(C)n21	3	96	87	105
C=CCc1ccccc1OCc1cc(=O)n2nc(C)sc2n1	8	x	x	105
Cc1cc(C(F)(F)F)n2nc(C(C)C)cc2n1	-17	98	95	102
Cc1cc2c(cc1NC(=O)CCc1ccccc1)n(C)c(=O)c(=O)n2C	-29	83	81	99
O=C(Nc1ccc(-c2nc3ccccc3[nH]2)cc1)c1cc(-c2ccco2)nc2ccccc12	3	106	87	x
COc1ccc(NC(=O)c2cc(C)nc3c2c(C)nn3-c2cccc(Cl)c2C)c(OC)c1	x	91	96	102
COc1ccc(N2C(=O)CCSC23C(=O)N(Cc2ccc(F)cc2)c2ccccc23)cc1Cl (stereo unspecified)	x	93	61	109
CC(C)c1ccc(NC(=O)Cn2cccc2)cc1	-11	103	89	100&98
COc1ccc(-c2cn3nc(N4CCC(C(=O)Nc5cc(Cl)ccc5OC)CC4)sc3n2)cc1	x	117	65	110
Cc1ccc(NC(=O)Cn2nnc(C(=O)NCCc3ccccc3)c2N)cc1C	x	102	73	104
CSC(=S)N(C=O)c1ccc(C)cc1	-27	80	97	x
Cc1cc(=O)n(C)c(=O)n1-c1ccccc1	-29	x	x	101
CCOC(=O)C1CCN(C(=O)Cn2ncc3c4ccccc4n(Cc4ccc(F)cc4)c3c2=O)CC1	-10	93	94	105
COc1ccc(N(CC(=O)N2CCN(c3cccc(OC)c3)CC2)S(=O)(=O)c2c(C)noc2C)cc1	-34	114	83	101
O=S(=O)(Cc1ccccc1)N1CCN(c2cc(-c3ccc(F)cc3)ncn2)CC1	-23	x	x	104
O=C(Nc1ccccc1)C1CCN(S(=O)(=O)c2ccc3c(c2)CCCN3C(=O)C2CCC2)CC1	x	98	87	106
COc1ccc(-n2ncc(C(=O)NCCc3ccccn3)c2C)cc1	-3	98	91	100
CSC1=C(C#N)C(=O)NC(c2ccc(Cl)cc2Cl)S1 (stereo unspecified)	-20	87	94	96
COc1ccc(/C=C2\N=C(c3c(-c4ccccc4)noc3C)OC2=O)c(OC)c1OC	-14	x	x	98
CCOc1ccc(C(=O)Nc2ccc3nc(SCc4ccccc4)sc3c2)cc1	-16	103	90	99
O=C(NCCn1c(CCc2ccccc2)nc2ccccc21)NC1CCCC1	-13	x	x	106
Cc1cc(=O)n2nc(N3CCC(C(=O)NCc4ccc(F)cc4)CC3)sc2n1	-21	95	83	104
Nc1cccc(C(=O)Nc2ccc3nc(-c4ccccn4)[nH]c3c2)c1	-5	69	125	99
CC(C)NC(=S)N1CCN(S(=O)(=O)c2cccc(C(F)(F)F)c2)CC1	2	111	103	x
COC(=O)c1cc2occc2n1Cc1cccc(C)c1	-10	90	110	109
COc1ccc(NC(=O)c2cccc(Br)c2)cc1CN1CCn2c(nc3ccccc32)C1	-20	x	x	98
COc1ccc(NC(=O)c2c(NC(=O)c3ccncc3)sc3c2CCC(C(C)(C)C)C3)cc1 (stereo unspecified)	-14	99	93	103
N#CSc1sc(N)nc1-c1ccccc1	0	0.1*	0.4*	107
Cn1c(=O)n(C)c2cc(/C=N/NC(N)=S)ccc21	-40	62	51	102
CCNC(=O)/C=C/c1ccc(Cl)c(Cl)c1	-37	99	80	x
Clc1ncnc2[nH]ncc12	-26	102	86	103
CCc1ccccc1NC(=O)N1CCc2c([nH]c3ccccc23)C1c1ccc(C)cc1 (stereo unspecified)	-14	105	93	105
Cc1cc2c(c(=O)o1)C(c1ccc(F)cc1)C(C#N)=C(N)O2 (stereo unspecified)	7	92	67	x
C=CCSc1nc(C)c2cc(C)cc(C)c2n1	x	93	80	105

Assay outcomes deposited in PubChem by ICCB-Longwood Screening Facility, Harvard Medical School.
